High-throughput results (PubChem)
D2 potentiator: potentiates the human D2 dopamine receptor allosterically | DiscoveRx D2 beta-arrestin cells, luminescence, 90 min; 100% = 57 uM dopamine signal | potentiation, % (concentration not given with the values) | 360,000 compounds, 0.23% hits | P14416; active = potentiation of 50% or more; inconclusive = 30% to 50%; inactive = 30% or less;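 further: tested on top of an EC20 dose of dopamine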
Target sequence (P14416 whole entry, looked up): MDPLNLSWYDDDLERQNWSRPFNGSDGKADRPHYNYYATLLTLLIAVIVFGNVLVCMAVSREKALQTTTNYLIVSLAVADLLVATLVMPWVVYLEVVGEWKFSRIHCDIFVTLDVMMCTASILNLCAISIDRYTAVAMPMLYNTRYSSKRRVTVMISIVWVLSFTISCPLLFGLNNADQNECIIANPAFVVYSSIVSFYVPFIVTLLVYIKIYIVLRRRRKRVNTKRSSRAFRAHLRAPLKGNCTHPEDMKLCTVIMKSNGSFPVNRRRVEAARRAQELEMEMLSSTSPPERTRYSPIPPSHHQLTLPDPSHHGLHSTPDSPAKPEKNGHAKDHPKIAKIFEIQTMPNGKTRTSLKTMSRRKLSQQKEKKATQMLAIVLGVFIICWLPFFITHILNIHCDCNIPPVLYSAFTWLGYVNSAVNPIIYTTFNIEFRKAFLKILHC
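D2 cells co-treated with compound plus 50 nM dopamine (EC20) for 90 min at 37 deg C to detect potentiation. Beta-arrestin recruitment was read as enzyme-fragment luminescence after 1 h at ambient temperature. Full response was set by 57 uM dopamine.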
CtBP-E1A inh: CtBP/E1A binding inhibition; AID 651724; 340,000 compounds, 0.49% hits; activity change, % (no concentration beside the values); AlphaScreen GST-E1A/His-CtBP binding, 1536-well; hits give low values; control for the full effect not named in the record; in the data active means activity change below about -65%; inconclusive means about -30% to -65%; inactive means above about -30%; further: on the % scale 0 is the no-effect control and ±100 the full control effect
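Protein mix (5X: 125 nM each GST-E1A, His-CtBP) was incubated with pinned compound 2 h at 37 deg C in dark, in 50 mM Tris pH 8.0 buffer with 300 mM NaCl. Glutathione donor and nickel acceptor beads followed; AlphaScreen signal read after 1 h.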
Six1-Eya2 inh: inhibitors of human Six1/Eya2 interaction; Q15475+O00167; AlphaScreen GST-Six1/His-Eya2 binding, biochemical; hits give low values; control for the full effect not named in the record; activity change, % (test concentration not listed); 360,000 compounds, 0.56% hits; AID 651725; in the data active = activity change below about -65%; inconclusive = about -30% to -65%; inactive = above about -30%; further: on the % scale 0 is the no-effect control and ±100 the full control effect
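GST-Six1 + His-Eya2 (5X stock: 250/500 nM); Tris pH 8.0, 300 mM NaCl, 0.05% BSA, 0.02% Tween 20; GSH donor/Ni acceptor beads; 1 h 37 °C dark; AlphaScreen readout.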
TRPML1 blocker: human mucolipin-1 channel inhibition | Q9GZU1 | TRPML1-inducible cells, Ca2+ dye fluorescence, FDSS; hits give low values; inhibition of EC80 agonist-evoked calcium signal | 390,000 compounds, 0.02% hits | AID 624415 | activity change, negative = inhibition, % (no concentration beside the values); in the data active means activity change below about -50%; inconclusive means about -30% to -50%; inactive means above about -30%;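 further: stimulus is agonist 54-4 at its EC80 concentration; on the % scale 0 is the no-effect control and ±100 the full control effect; compound concentration not given in the record; the text of the record puts the active cut at -80%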
Target sequence (Q9GZU1 whole entry, looked up): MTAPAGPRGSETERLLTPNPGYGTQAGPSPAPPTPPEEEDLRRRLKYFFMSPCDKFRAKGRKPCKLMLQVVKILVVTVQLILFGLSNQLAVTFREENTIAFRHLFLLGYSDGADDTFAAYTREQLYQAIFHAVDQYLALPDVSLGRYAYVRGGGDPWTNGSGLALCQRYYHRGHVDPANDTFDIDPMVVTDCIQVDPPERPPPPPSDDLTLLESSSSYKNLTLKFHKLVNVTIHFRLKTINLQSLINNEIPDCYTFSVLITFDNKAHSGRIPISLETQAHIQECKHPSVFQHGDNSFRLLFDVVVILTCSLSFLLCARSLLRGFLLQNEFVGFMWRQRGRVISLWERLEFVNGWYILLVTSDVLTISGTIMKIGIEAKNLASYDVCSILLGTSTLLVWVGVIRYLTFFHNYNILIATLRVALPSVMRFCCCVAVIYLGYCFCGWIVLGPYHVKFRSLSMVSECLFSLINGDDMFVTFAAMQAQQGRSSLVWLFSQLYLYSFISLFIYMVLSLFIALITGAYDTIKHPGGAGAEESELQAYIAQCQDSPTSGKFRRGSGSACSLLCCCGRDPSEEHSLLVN
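TRPML1-DL cells, Tet-induced overnight (~16 h, 37 °C) at 1,500 cells/well, were loaded with Ca8 no-wash dye plus quencher for 45-90 min at room temperature. Compounds were pinned during FDSS kinetic reading; agonist 54-4 at EC80 (4 uM final) then added.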
TRPML1 ag: human mucolipin-1 channel agonism; 410,000 compounds, 0.12% hits; activation, % (test concentration not listed); Q9GZU1; TRPML1-expressing cells, Ca2+ dye fluorescence, FDSS; host cell line not named in the record; reference of the full effect not given here; AID 624414; in the data active = activation above about 50%; inconclusive = about 30% to 50%; inactive = below about 30%; further: 0% is about no effect; the text of the record puts the active cut at 80%
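Agonist activity was taken from a 110 s kinetic Ca2+ dye read on the FDSS after pinning compounds onto TRPML1-DL cells. The cells were seeded at 1,500/well with Tet inducer, incubated about 16 h, then dye-loaded at room temperature.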
TRPV1 PAM: potentiators of human vanilloid receptor 1 (TRPV1) | potentiation, % at 8.33 µM | 320,000 compounds, 0.02% hits | TRPV1-expressing cells, Fluo-8 calcium influx, capsaicin EC20 potentiation; host cell line not named in the record; control for the full effect not named in the record; active means potentiation above 80%; inconclusive means 30% to 80%; inactive means below 30%; further: 0% is about no effect
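TRPV1-expressing cells were cultured overnight at 35.5C and loaded with Fluo-8 calcium dye for 40 to 90 min at room temperature. After a 10 s baseline, compound was added and calcium influx was read kinetically for 3 min (ex 480/em 520 nm).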
* marks the source's active call; other numbers are inactive results; ? = inconclusive; . = no result given; & = joins results of further samples.

SMILES	D2 potentiator	CtBP-E1A inh	Six1-Eya2 inh	TRPML1 blocker	TRPML1 ag	TRPV1 PAM
O=C1CN(c2nc(-c3cccs3)nc3sc4c(c23)CCCC4)CCN1	-3	-13	-24	-14	-0.3	-12
Cc1ccccc1-c1n[nH]c(=S)o1	-9	4	7	12	0.1	-7
COc1cccc(C(=O)NN=C2CCCC2)c1	-11	-22	-2	-11	0.2	-10
CN(Cc1ccccc1)C(=O)COC(=O)c1ccc(=O)n(Cc2ccccc2)n1	-20	4	5	-8	0.7	13
Cc1noc(/C=C/N(C)C)c1S(=O)(=O)N1CCC(C(=O)O)CC1	-1	-1	-7	-1	-0.3	14
CNC(=S)N/N=C/c1c(C)nn(-c2cccc(Cl)c2)c1Cl	-1	0	-10	-10	0.2	20
CNC(=O)c1ccc(NC(=O)CCc2c(C)noc2C)cc1	-5	.	3	-4	0.4	9
Cc1ccc(S(=O)(=O)NNC(=O)C(O)(c2ccccc2C)c2ccccc2C)cc1	-1	15	-2	-6	0.6	-1
Cc1ccc(NCc2nc3ccccc3n2CCOc2ccccc2)cc1	-13	-1	-14	30&35	4.1&2.2	-13
O=S(=O)(NCCc1ccccc1)c1cnc(Cl)c(Br)c1	5	14	4	3	0.7	-1
COC(=O)c1ccc2ccn(CC(=O)NC(C)C)c2c1	-15	3	1	-9	0.3	13
CCC(C)c1ccc(NC(=O)C2CCCN(c3ncccn3)C2)cc1 (stereo not drawn)	11	14	4	-2	2.5	-5
S=C(NCc1ccccc1)NCc1ccccc1	-13	14	-2	7	-0.4	-2
CCOc1ncccc1C(=O)OCC(=O)c1c(N)n(C)c(=O)n(C)c1=O	0	-3	-11	-8	0.2	4
Cc1c(Cl)cc(C(C)C)c(O)c1CN1CCOCC1	-15	-20	18	2	4.2	.
COc1cc(-c2nnc(CSc3nnc(Nc4ccc(C(C)C)cc4)s3)o2)cc(OC)c1OC	13	-29	-24	-20	0.4	2
CC(=O)Nc1ccc(NC(C)=O)c(NC2OCC(O)C(O)C2O)c1 (stereo not drawn)	1	6	-2	25	0.7	.
O=C(NCCc1ccccc1)C1CCN(S(=O)(=O)c2cccnc2)CC1	-1	2	1	22	-0.8	.
Clc1ccc(-c2nc3ccccn3c2CN2CCOCC2)cc1	-11	-17	-2	8	0.8	19
O=C(N=C1SC2CS(=O)(=O)CC2N1CCc1ccccc1)C1CCCCC1 (stereo not drawn)	-4	.	5	3	3.0	-16
O=C(CSc1nnc2ccccn12)NCc1ccc2c(c1)OCO2	-10	.	4	9	0.4	-5
CN(C(=O)c1ccco1)c1nc(-c2ccccc2)cs1	-1	0	19	-20	1.8	-4
O=C(CCNS(=O)(=O)c1ccccc1)Nc1ccccc1	-1	7	5	22	1.3	5
COc1ccccc1NC(=O)CSc1nc2sc(C)c(C)c2c(=O)n1Cc1ccco1	2	-1	-1	-5	1.4	11
N/C(=N\NC(=O)c1ccc(Cl)cc1)c1cnccn1	-1	21	2	-20	0.6	-18

Filtered by structure: the compounds so far containing an aryl methoxy group.
SMILES	D2 potentiator	CtBP-E1A inh	Six1-Eya2 inh	TRPML1 blocker	TRPML1 ag	TRPV1 PAM
COc1cccc(C(=O)NN=C2CCCC2)c1	-11	-22	-2	-11	0.2	-10
COc1cc(-c2nnc(CSc3nnc(Nc4ccc(C(C)C)cc4)s3)o2)cc(OC)c1OC	13	-29	-24	-20	0.4	2
COc1ccccc1NC(=O)CSc1nc2sc(C)c(C)c2c(=O)n1Cc1ccco1	2	-1	-1	-5	1.4	11

Retrieved one by one from the entries so far (four):
SMILES	D2 potentiator	CtBP-E1A inh	Six1-Eya2 inh	TRPML1 blocker	TRPML1 ag	TRPV1 PAM
COc1cccc(C(=O)NN=C2CCCC2)c1	-11	-22	-2	-11	0.2	-10
CCC(C)c1ccc(NC(=O)C2CCCN(c3ncccn3)C2)cc1 (stereo not drawn)	11	14	4	-2	2.5	-5
O=C(N=C1SC2CS(=O)(=O)CC2N1CCc1ccccc1)C1CCCCC1 (stereo not drawn)	-4	.	5	3	3.0	-16
O=C(CCNS(=O)(=O)c1ccccc1)Nc1ccccc1	-1	7	5	22	1.3	5

Other records follow:
SMILES	D2 potentiator	CtBP-E1A inh	Six1-Eya2 inh	TRPML1 blocker	TRPML1 ag	TRPV1 PAM
COc1ccc([C@H]2CC(=O)C=C(c3cccc(Cl)c3)C2)cc1	-10	8	16	-2	4.5	-12
O=C(NCCN1CCOCC1)c1cccc(S(=O)(=O)N2CCCC2)c1	9	-9	4	20	0.3	7
O=C(Nc1nncs1)c1cc(S(=O)(=O)N2CCOCC2)ccc1Cl	-1	5	-4	28	0.3	-4
CC(=O)Nc1ccc(S(=O)(=O)N2CCN(c3cnn(C)c(=O)c3Cl)CC2)cc1	-4	0	19	-4	-0.3	1
O=C(CCc1nnc(-c2ccsc2)o1)NCc1ccccc1OC(F)(F)F	1	-1	-1	4	0.8	-2
Cn1c(=O)c(=O)n(C)c2cc(N3CCOCC3)c(NS(=O)(=O)c3ccc(Br)cc3)cc21	-4	-12	-9	8	1.0	28
COc1cccc(CNC(=O)C2CCC(=O)N(C3CC3)C2)c1OC (stereo not drawn)	-5	-1	-1	16	0.1	0
COc1cccc(C(=O)OCCN2CCCCC2)c1	-14	0	-3	11	-0.6	11
CSc1ccc2nnc(-c3cccc(F)c3)n2n1	-6	?	?	16	2.0	.
COc1cccc(-n2c(O)c(C=NCc3ccccn3)c3ccccc3c2=O)c1	-6	-4	-17	-3	1.2	-8
COCCNC(=O)CN(C(=O)CCC(=O)Nc1ccccn1)c1ccccc1OC	1	3	-2	-17	0.1	8
Cc1n[nH]c(C)c1CCCCOc1ccccc1F	-9	1	2	-3	1.1	4
CC1CN(/C=C/C=O)C(C)CC1OC(=O)c1ccccc1 (stereo not drawn)	-7	-3	-6	-15	-0.5	-12
CN1C(=O)NC(NC(=O)c2cccs2)(C(F)(F)F)C1=O (stereo not drawn)	5	6	5	-13	-0.1	-18
CC(C)C(=O)Nc1ccc2nn(-c3ccccc3)nc2c1	-19	?	?	6	-1.3	-4
N#CCSc1nc2c(sc(=S)n2Cc2ccco2)c(=O)n1-c1ccc(F)cc1	5	-15	-12	-3	0.3	-3
CCN1CCc2c(sc(NC(=S)NC(=O)c3ccc(Cl)cc3)c2C(N)=O)C1	-19	-19	-15	-5	0.8	.
CC(c1ccccc1)C1CC(=O)N(c2ccc(C(=O)O)cc2)C1=O (stereo not drawn)	-7	-8	7	-6	0.7	8
COCCn1c(C(C)C)nc2ccccc21	-17	.	3	6	-0.5	-13
CC(=O)Nc1cccc(NC(=O)CSc2n[nH]c(-c3ccccc3)n2)c1	0	2	-1	26	3.2	13
Cc1ccc2cccnc2c1NC(=S)NC(=O)c1ccccc1	-16	-9	-4	1	-1.0	11
O=C1c2ccccc2C(=O)N1C1C(=O)N2CCSC12C(=O)OCc1ccccc1 (stereo not drawn)	-6	-21	11	3	2.4	.
O=C(Cc1ccc(Cl)c(Cl)c1)Nc1cccc(S(=O)(=O)N2CCOCC2)c1	0	-5	1	-6	0.1	-8
Cc1ccc(C(=O)NC(NCc2ccco2)C(Cl)(Cl)Cl)cc1 (stereo not drawn)	-3	0	2	-16	2.9	15
Cc1cnn(C(=O)c2cc(-c3ccccc3)nc3ccccc23)c1	-13	8	10	15	-0.2	-4
SMILES	D2 potentiator	CtBP-E1A inh	Six1-Eya2 inh	TRPML1 blocker	TRPML1 ag	TRPV1 PAM
N#C/C(=C\c1cc(Br)ccc1F)C(=O)NC1CC1	-6	5	2	-6	-0.5	2
CC1CCCC(C)N1C(=O)CSc1nc2ccccc2c(=O)[nH]1 (stereo not drawn)	-4	3	-1	-21	0.0	-26
O=C(N/N=C/c1ccc(-c2ccc(S(=O)(=O)Nc3ncccn3)cc2)o1)c1cc2ccccc2cc1O	-2	-20	-67*	-7	-0.6	10
CCCCCCn1cc(CN2CC(N(C)CC)CS2(=O)=O)nn1 (stereo not drawn)	.	0	12	.	-0.8	.
C=CCn1c(O)c(N=NC(=O)CNC(=O)c2ccncc2)c2ccccc21	-16	6	-1	10	-1.2	-9
Cc1ccc(OCC(=O)OCC(=O)NC2CC2)cc1C	1	11	6	-5	3.8	-9
O=c1[nH]c(N2CCN(c3ccccc3)CC2)nc2c1CCCC2	10	7	-5	35	2.5	-9
O=C(CSc1nnc(NC(=O)C2CC2)s1)Nc1cccc(F)c1	-4	-5	-1	-13	-0.4	27
CCc1nc2ccc(C(=O)N3CCN(C(=O)c4ccco4)CC3)cn2c1N(CC)Cc1cccc(Br)c1	2	-8	-7	.	-1.2	.
COc1ccccc1N1CCN(C(=O)c2ccc(Cl)c(S(=O)(=O)NCc3ccco3)c2)CC1	6	-7	0	2	-0.2	7
Nc1cc(C(=O)c2ccccc2)ccc1[N+](=O)[O-]	-2	-5	-9	-15	2.1	6
COc1cc(OC)c(C(=S)N2CCCC2)cc1OC	1	9	0	13	0.3	-20
COC(=O)c1ccc(COc2ccc(/C=N/Nc3cccc(C(=O)O)c3)cc2)cc1	-11	-8	-17	16	1.2	-4
Nc1c2c(nc3ccc(Br)cc13)N(Cc1ccccc1)CC2	-12	.	-2	-4	4.9	-2
O=C(COC(=O)CCc1c[nH]c2ccccc12)NC1CCS(=O)(=O)C1 (stereo not drawn)	-9	2	31	-4	1.3	1
OCCNCCCCOc1ccccc1F	-19	6	5	8	0.8	-6
Cc1cccc(CC(=O)Nc2c3c(nn2-c2cccc(Cl)c2)CS(=O)C3)c1 (stereo not drawn)	8	7	1	35	0.2	17
O=C(CCCN1C(=O)NC2(CCCC2)C1=O)NCc1ccccc1	-3	0	8	12	1.4	25
N#Cc1ccccc1S(=O)(=O)N1CCN(C(=O)c2ccc(-n3cncn3)c([N+](=O)[O-])c2)CC1	3	2	8	-3	-0.2	0
Cc1cnn(C(=O)c2cc(-c3ccccn3)nc3ccc(Cl)cc23)c1	5	-10	-2	-2	1.4	-22
COc1nc(NCCO)nc(Nc2ccc([N+](=O)[O-])cc2)n1	-9	-5	-19	67	0.5	19
COc1ccc(S(=O)(=O)N2N=C(c3ccc(NS(C)(=O)=O)cc3)CC2c2ccco2)cc1 (stereo not drawn)	0	1	-1	10	3.7	4
COC(=O)C1CCN(S(C)(=O)=O)CC1	-4	-3	0	16	0.4	-1
O=C(O)CSc1nnc(-c2ccc3c(c2)OCO3)o1	0	4	4	-10	-0.1	-11
CC(C)Nc1ccc(C(CC(N)=O)NC(=O)Cc2ccc(Br)cc2)cc1[N+](=O)[O-] (stereo not drawn)	-3	-1	-5	9	0.2	10
SMILES	D2 potentiator	CtBP-E1A inh	Six1-Eya2 inh	TRPML1 blocker	TRPML1 ag	TRPV1 PAM
COc1c2ccoc2c(OC[C@@H](O)C(C)(C)OC)c2oc(=O)ccc12	-6	.	3	-11	0.2	-4
Cn1c(C(=O)N2CCCC(C(=O)NCCCSC3CCCCC3)C2)cc2sccc21 (stereo not drawn)	-7	0	-13	10	0.4	2
CCCn1c(=O)c2[nH]c(C3CCCC3)nc2n(CCC)c1=O	-12	4	2	-10	-0.5	-18
O=C(CCN1C(=O)c2ccccc2C1=O)c1ccccc1	-4	0	0	38	-0.4	.
COCCn1c(=O)[nH]c2cc(C(=O)N3CCN(c4ccc(OC)cc4)CC3)ccc2c1=O	-1	12	1	0	0.2	21
O=C(Nc1cccc(Cc2ccccc2)c1)Nc1ccc2nc([C@@H]3O[C@H](CO)[C@@H](O)[C@H](O)[C@H]3O)[nH]c2c1	-2	0	-7	.	-0.6	.
